ugtP null kill: compounds lethal to S. aureus RN4220 ugtP deletion mutant; OD600 growth, 16 h; some inactives read as strong as hits; hit rate 0.54% among 330,000; growth inhibition, % (test concentration not listed); AID 1259309;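 active means z-score under -3 and OD600 up to 0.15 on both plates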;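 further: plate controls were untreated wells for no effect and antibiotic for full effect; wells of about 80 µL received 100 nL stock; the first replicate is given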
BJeLR viability: BJeLR cell viability loss; inhibition, % (concentration not given with the values); BJeLR (HRASV12) viability, CellTiter-Glo ATP luminescence, 48 h; reference of the scale not given here; hit rate 0.17% among 300,000;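 active means replicate mean above 50%; inconclusive means above 50% but judged a plate artefact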;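 further: 50 nL library stock added to about 25 µL; numbers are from one replicate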
RN4220 kill: S. aureus RN4220 growth inhibition; OD600, 16 h; inhibition, % (concentration not given with the values); hit rate 0.33% among 330,000;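 active means z-score of -3 or lower and OD600 up to 0.18 on both plates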;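 further: plate controls were untreated cells for no effect and reference antibiotic for full effect; stock transfer was 100 nL into about 80 µL; one replicate is shown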
Autofluor counter: counter-screen for toxin protease inhibitors: compound fluorescence | compound autofluorescence counterscreen, microsphere flow cytometry; active compounds read high | fluorescence intensity (test concentration not listed) | hit rate 3.1% among 360,000;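 active means at least 3 SD above the mean of all compounds, about 16000 in these data; inconclusive means too few beads counted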;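 further: 100 nL of 1 mM stock went into each well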
PrP 5UTR inh: inhibition of PrP 5' UTR reporter expression. cell-based PrP 5' UTR mRNA reporter, plate reader. inhibition, % (test concentration not listed). hit rate 0.35% among 340,000. AID 488862;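 active means every replicate at 50% or more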;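 further: 0 = median of the neutral control wells; tested in H4 reporter cells; numbers are from one replicate; inactives centre near -14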
Mtb hypoxia rep: inhibitors of hypoxia-regulated fluorescent reporter in Mycobacterium tuberculosis; M. tuberculosis hypoxia-regulated fluorescent reporter, fluorescence; hit rate 0.1% among 300,000; fluorescence inhibition, % (concentration not given with the values);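 active means 35 to 45% if threefold the growth effect, above 45% if 1.5-fold the growth effect; inactive means the rest, general growth blockers included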;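 further: wells of about 50 µL received 100 nL stock; 0% = vehicle wells and 100% = reference inhibitor wells; whole bacteria with a GFP reporter of the hypoxia response; strong numbers were not always called active; many hits fall short of the cut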
Mtb hypoxia rep growth: also measured in Mtb hypoxia rep; calls as there; growth inhibition, %; measured here: M. tuberculosis growth (absorbance);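 0% = vehicle and 100% = reference antibiotic; read after six days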
Starred values were filed as active, the others as inactive; ? = inconclusive; . = not tested or not shown. No enrichment for hits; 4% or so of the library scored in one or more.

structure,ugtP null kill,BJeLR viability,RN4220 kill,Autofluor counter,PrP 5UTR inh,Mtb hypoxia rep,Mtb hypoxia rep growth
CCCn1c(=N)n(CC(O)c2ccc(C)cc2)c2ccccc21 (stereo unspecified),-2,7,11,5488,-7,9,20
COc1ccc(-c2nnc(SC(C)C(=O)NCc3ccc4c(c3)OCO4)n2Cc2ccco2)cc1 (stereo unspecified),.,-4,.,2988,-23,.,.
CCCCOC(=O)C1=C(C)Nc2nnnn2C1c1ccc(OC)c(OC)c1OC (stereo unspecified),-4,-1,5.6,8895,-14,14,2
O=C(Nc1ccc(Cl)cc1)N1CCSC1=NCc1ccccc1,3,0,-2.0,6235,-1,-12,1
COc1ccccc1N1CCN(N=Cc2ccccc2C(=O)O)CC1,8,.,23,.,.,-8,12
CC1CCCCC1NC(=O)CN1C(=O)c2ccccc2S1(=O)=O (stereo unspecified),0,1,-1.9,5142,-6,8,7
Cn1cccc1/C=N\NC(=O)C1COc2ccccc2O1 (stereo unspecified),.,-5,.,4790,-21,.,.
CC(C)CC(NC(=O)OC(C)(C)C)C(=O)NCc1ccccc1 (stereo unspecified),-1,-3,5.9,4803,-36,.,.
COC(=O)[C@@]1(Cc2ccc(OC)cc2)C2C(=CC(=O)C2CC(=O)C(=O)N2CCCC2)CN1C(=O)c1ccccc1 (stereo partly specified),1,.,0.4,.,.,3,14
Nn1c(SCC(=O)NC2CCCC2)nnc1-c1ccccc1F,12,6,1.7,2244,-16,.,.
O=C(Nc1cccc(C(=O)Nc2ccc(Br)cc2)c1)c1ccccc1,-7,10,2.4,3429,-33,-2,8
O=C(OCCN1CCCCC1)c1ccccc1Cl,10,7,3.5,3135,-5,.,.
O=C(Cn1cnc2ccccc2c1=O)NCCC(=O)N1CCN(Cc2ccccc2)CC1,1,2,2.7,10966,-9,-7,3
CC(C)NC(=O)Cn1cc(C(=O)C2CC2)c2ccccc21,2,-4,6.6,4377,-4,6,3
O=C(Nc1ccc(Cn2cccn2)cc1)c1ccc(COc2ccccc2Br)cc1,-18,-1,-2.2,3458,-27,.,.

Next section:
structure,ugtP null kill,BJeLR viability,RN4220 kill,Autofluor counter,PrP 5UTR inh,Mtb hypoxia rep,Mtb hypoxia rep growth
O=C(c1ccccc1Cl)N1N=C(c2cccs2)CC1c1cccc(O)c1 (stereo unspecified),-3,8,6.0,5375,1,2,3
CCOc1ccc(Oc2cc(NC(=O)c3ccco3)cc([N+](=O)[O-])c2)cc1,47,.,9.4,2341,3,9,7
CC(C)=N/N=C(\N)SCc1ccccc1,4,18,-0.2,.,-26,19,1
COc1cc(C(=O)NCCOc2cc(C)cc(C)c2)cc(OC)c1OC,-6,36,-1.4,3481,-39,-5,11
Cc1ccc(Cn2nnc(C(=O)Nc3cccc(C)c3C)c2N)cc1,-8,19,-4.4,19408*,-11,5,14
N#Cc1ccccc1Cn1cc(C#N)c2ccccc21,5,4,-0.4,2269,8,7,-1
O=C(c1ccc(F)cc1F)N1CCCc2ccccc21,-5,9,-0.7,3252,0,-2,-14
O=C(CSc1nc2ccccc2n1Cc1ccc(Cl)cc1)NN=Cc1ccc(C(=O)O)cc1,1,.,-0.4,.,.,1,7
O=C(O)COc1ccccc1/C=N/NC(=O)CSc1nnc(SCc2cccc3ccccc23)s1,.,8,.,5151,-16,.,.
CC1CCN(C(=O)/C(=C/c2ccccc2Cl)c2ccccc2)CC1,2,-4,2.5,4428,-16,.,.
C/C(=N/NC(=O)c1nnn(-c2nonc2N)c1COc1ccccc1)c1ccccc1Cl,.,10,.,5857,-2,.,.
Nc1nnc(CC(c2ccccc2)c2ccccc2)s1,43,-9,5.8,9201,-15,14,7
CCC(C)N(C(=O)COC(=O)COc1c(C)cc(C)cc1C)C1CCS(=O)(=O)C1 (stereo unspecified),9,-8,0.4,4063,-16,1,0
Cc1ccc(Oc2nc(-c3ccccc3)ncc2S(C)(=O)=O)cc1,-7,0,-9.7,3266,1,4,9
O=C(CSc1nnc2scc(-c3ccccc3)n12)NCc1ccco1,12,-3,6.1,2054,-10,-2,1

Remaining list, next part.
structure,ugtP null kill,BJeLR viability,RN4220 kill,Autofluor counter,PrP 5UTR inh,Mtb hypoxia rep,Mtb hypoxia rep growth
Cn1c(CN2CCOCC2)nnc1SCc1cccc(F)c1,0,-8,2.5,3337,54,17,9
CC1CCN(S(=O)(=O)c2ccc(NC(=O)c3cccs3)cc2)CC1,2,-3,7.2,3283,-15,9,14
COC(=O)[C@H](CC(C)C)NC(=O)Nc1cccc(Br)c1,7,0,3.2,2279,-33,7,3
CC(=O)COC(=O)C1=NN(c2ccccc2)C(=O)CC1,15,20,1.1,3639,-18,11,5
Nn1c(Cc2ccccc2)n[nH]c1=S,0,11,0.7,4277,-13,8,4
CCOC(=O)N1CCC(=NNc2ccnc3cc(Cl)ccc23)CC1,-10,.,0.1,2737,-14,2,3
COc1ccc2c(c1)N(C(=O)CN1C(=O)C3CCCCC3C1=O)C(C)(C)C=C2C (stereo unspecified),11,3,5.4,4949,-14,.,.
Cc1nnc(NC(=O)c2cc(-c3ccncc3)nc3c(C)cccc23)s1,1,-2,3.8,5995,-21,0,8
CCCCCC(=O)NNC1CC(=O)N(c2cccc(OCC)c2)C1=O (stereo unspecified),2,3,2.1,5439,-15,8,3
CCCn1cc(CN2CCC(Cc3cccc(F)c3)(C(=O)OCC)CC2)c(C)n1,2,5,5.4,4492,-2,5,9
O=C(NCCC1=CCCCC1)C1CCCN(S(=O)(=O)c2ccccc2)C1 (stereo unspecified),-3,-20,2.0,9928,-10,-9,0
CCCCCCCCNC(=O)CC(NS(=O)(=O)c1ccc(NC(C)=O)cc1)C(C)C (stereo unspecified),.,4,.,9646,-6,.,.
CC1(C)C2CC[C@]3(C)C(CC=C4[C@@H]5C[C@@](C)(CO)[C@@H](O)C[C@]5(C(=O)O)CC[C@]43C)[C@@]2(C)CC[C@@H]1O (stereo partly specified),3,-3,13,4464,.,.,.
CC(=O)c1ccc(C(=O)N2CCCC(Nc3ccc(C(C)C)cc3)C2)s1 (stereo unspecified),1,-2,1.0,5639,-13,1,9
CC(C)C(NC(=O)CC12CC3CC(CC(C3)C1)C2)C(=O)O (stereo unspecified),5,0,5.5,1977,-8,21,-7

(more compounds)
Results follow in this order: ugtP null kill | BJeLR viability | RN4220 kill | Autofluor counter | PrP 5UTR inh | Mtb hypoxia rep | Mtb hypoxia rep growth
CC(NCc1cccc(S(=O)(=O)N(C)C)c1)c1ccc(F)cc1 (stereo unspecified)
  1 | -3 | 2.3 | ? | -1 | 7 | -4
O=C(CCN1CCN(C(c2ccccc2)c2ccccc2)CC1)NN=Cc1ccc(O)cc1
  2 | . | 4.3 | . | . | 9 | 6
O=C(NNC1CC(=O)N(c2ccccc2)C1=O)c1ccccc1Cl (stereo unspecified)
  1 | 5 | 1.1 | 4575 | -14 | 11 | 10
CCn1c2ccccc2c2cc(NC(C)=O)ccc21
  -4 | -4 | 3.8 | 2582 | -19 | . | .
Cc1nn(C)c(C)c1CCC(=O)N1CCCC(N2CCN(c3ccc(F)cc3)CC2)C1 (stereo unspecified)
  1 | 5 | 1.6 | 5885 | -20 | -3 | -7
CCOC(=O)C1=C(c2ccccc2)NC(SC)=C(C#N)C1c1cccnc1 (stereo unspecified)
  2 | 11 | 6.1 | 1970 | -12 | 9 | 5
COc1ccc(-n2c(C)nc3sc4c(c3c2=O)CCC4)cc1
  1 | 3 | 6.5 | 4964 | -10 | 4 | 0
c1ccc(Nc2n[nH]nc2-c2ccccc2)cc1
  5 | -2 | 6.7 | 4934 | 1 | 5 | 4
CC(=O)Oc1ccc(C(=O)Nc2cccnc2)cc1
  9 | 2 | -2.6 | 3893 | -20 | 7 | 6
CCCCN(CC)CCNc1c(N2CCN(C(=O)OCC)CC2)c(=O)c1=O
  -8 | -4 | 0.1 | 6506 | . | -9 | 3

The listing continues:
Results follow in this order: ugtP null kill | BJeLR viability | RN4220 kill | Autofluor counter | PrP 5UTR inh | Mtb hypoxia rep | Mtb hypoxia rep growth
Cc1ccc(NC(=O)NCCCN2CCCC2=O)c(C)c1
  1 | 4 | 1.6 | 6040 | -6 | -5 | 11
COc1ccc(C(=O)NCc2cc(C)nc3ccccc23)cc1OC
  1 | 10 | 5.2 | 4062 | -25 | 2 | 8
Cc1noc(C)c1CSCC(=O)Oc1ccc(N(C)S(=O)(=O)c2ccccc2)cc1
  1 | -3 | 2.8 | 5533 | 0 | -5 | 11
CC1(C)CC(=O)C2=C(C1)N(c1ccc(F)cc1)C(=O)CC2c1ccccc1 (stereo unspecified)
  1 | -5 | 6.1 | 3842 | -7 | 7 | 7
O=S(=O)(c1cccc(NC(=S)NCc2ccco2)c1)N1CCOCC1
  5 | 7 | 0.6 | 2087 | -9 | 7 | 6
COc1ccccc1Nc1nc(N)nc(CN2CCN(c3ccccc3F)CC2)n1
  1 | -3 | 2.6 | 3155 | -4 | 4 | 9
CC(C)c1cc(-c2n[nH]c(=S)n2Cc2ccccc2)cs1
  -14 | 8 | -0.4 | 11442 | -5 | 1 | -2
Cc1ccc(C(=O)CSc2nc3ccccc3c(=O)n2N)o1
  4 | 11 | 2.4 | 19119* | -118 | 7 | 5
Cc1ccc(CONC(=O)c2ccc(C)cc2)cc1
  0 | . | -3.9 | 3744 | -23 | 1 | 2
COc1ccccc1NC(=S)N/N=C1\CC(C)(C)Oc2ccc(O)cc21
  . | 1 | . | 4843 | -31 | . | .

Further results
Results follow in this order: ugtP null kill | BJeLR viability | RN4220 kill | Autofluor counter | PrP 5UTR inh | Mtb hypoxia rep | Mtb hypoxia rep growth
O=C(COc1ccc(Br)cc1F)Nc1nnc(C2CC2)s1
  -4 | . | -0.5 | 4663 | -28 | 8 | -3
COc1ccc(C)cc1S(=O)(=O)N(C)CC(=O)Nc1ccc2c(c1)OCO2
  -2 | 8 | -0.4 | 10130 | -10 | 14 | 8
O=C(NCCCN1CCOCC1)c1ccc2c(c1)N(Cc1c(F)cccc1Cl)C(=O)CS2
  4 | 6 | 0.3 | 3965 | -21 | 17 | 7
COc1ccc(S(=O)(=O)N2CCN(Cc3cccnc3)CC2)cc1
  3 | -4 | 1.1 | 5742 | -18 | 16 | 6
Cc1ccc(O)c(CNc2nc3ccccc3n2C)c1
  -4 | 6 | 1.0 | ? | -24 | 2 | 17
Cc1cccc(NC(=S)/N=C(\N)Nc2nc(C)c3ccccc3n2)c1
  6 | -7 | 7.0 | 8052 | -31 | -2 | -7
CC1CN=C(Nc2ccccc2)N1CCc1ccc(F)cc1 (stereo unspecified)
  5 | . | 3.5 | . | . | 17 | 8
Oc1ccc2ccccc2c1Br
  -3 | 9 | 4.1 | 4251 | -12 | -1 | -2
CN1C(=O)C(Cl)(Cl)C(=O)c2ccccc21
  30 | -5 | 1.2 | 2683 | -18 | 5 | 4
COc1cccc(NC(=O)N2CCC3(CC2)OCCO3)c1
  2 | -3 | 4.7 | 2030 | -29 | 6 | 0
COC(=O)c1ccc2[nH]c(CO)c(-c3ccccc3)c2c1
  3 | -3 | -2.9 | 3732 | -11 | 4 | -7

By substructure: the compounds so far containing a Cl atom
Results follow in this order: ugtP null kill | BJeLR viability | RN4220 kill | Autofluor counter | PrP 5UTR inh | Mtb hypoxia rep | Mtb hypoxia rep growth
O=C(Nc1ccc(Cl)cc1)N1CCSC1=NCc1ccccc1
  3 | 0 | -2.0 | 6235 | -1 | -12 | 1
O=C(OCCN1CCCCC1)c1ccccc1Cl
  10 | 7 | 3.5 | 3135 | -5 | . | .
O=C(c1ccccc1Cl)N1N=C(c2cccs2)CC1c1cccc(O)c1 (stereo unspecified)
  -3 | 8 | 6.0 | 5375 | 1 | 2 | 3
O=C(CSc1nc2ccccc2n1Cc1ccc(Cl)cc1)NN=Cc1ccc(C(=O)O)cc1
  1 | . | -0.4 | . | . | 1 | 7
CC1CCN(C(=O)/C(=C/c2ccccc2Cl)c2ccccc2)CC1
  2 | -4 | 2.5 | 4428 | -16 | . | .
C/C(=N/NC(=O)c1nnn(-c2nonc2N)c1COc1ccccc1)c1ccccc1Cl
  . | 10 | . | 5857 | -2 | . | .
CCOC(=O)N1CCC(=NNc2ccnc3cc(Cl)ccc23)CC1
  -10 | . | 0.1 | 2737 | -14 | 2 | 3
O=C(NNC1CC(=O)N(c2ccccc2)C1=O)c1ccccc1Cl (stereo unspecified)
  1 | 5 | 1.1 | 4575 | -14 | 11 | 10
O=C(NCCCN1CCOCC1)c1ccc2c(c1)N(Cc1c(F)cccc1Cl)C(=O)CS2
  4 | 6 | 0.3 | 3965 | -21 | 17 | 7
CN1C(=O)C(Cl)(Cl)C(=O)c2ccccc21
  30 | -5 | 1.2 | 2683 | -18 | 5 | 4
